# Screening data deposited in PubChem by National Center for Advancing Translational Sciences (NCATS).
# Rango release inh: prevents RanGTP from dissociating the Rango-importin beta complex. O95149+P62826. Biochemical FRET Rango-importin beta, RanGTP-induced dissociation. AID 540253. 340,000 compounds, 0.071% hits. Potency, µM (top dose mostly 46.1 µM), for the others: top-dose activity change, negative = inhibition; active means falling FRET ratio curve, often poorly fitted, with flat reads before Ran was added; inconclusive means other falling curves, or compound fluorescence or quenching; inactive means flat or rising ratio curve;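 note: potency is the fitted concentration of half-maximal effect; % of control where 0% means no effect; nearly all actives have a fitted effect of over 45% in size; -100% = wells without RanGTP and RCC1; the record marks most hits as doubtful in a second field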
#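 Two FRET readings bracket the reaction: one 5 min after compound meets Rango–importin beta, another 45 min after RanGTP-RCC1 (0.6 uM Ran, 0.2 uM RCC1, 2 mM GTP) is added. Only the second defines inhibition.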
# miR-21 reporter: raises the signal of a miR-21 reporter. HeLa miR-21 FLuc reporter, luciferase, 48 h. Potency, µM (doses to about 38.3 µM), inactives show at the highest dose reporter change, positive = more light. 340,000 tested, under 10 active. AID 2288; active = well fitted rising curve with a large enough effect; inconclusive = small, poorly fitted or top-dose-only effect; inactive = no such curve, though single readings can be large or run the other way;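 note: % of control where 0% means no effect; miR-21 action dims this reporter so a rising signal means less miR-21 action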
#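 HeLa miR-21-FLuc reporter line, endogenous miR-21; 2000 cells/well in DMEM/10% FBS; compound titration up to ~40uM final, 48 h, 37 degree Celsius; luciferase detection reagent, 15 min lysis, CCD luminescence.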
# Rango-impB inh: inhibitors of Rango-importin beta complex formation | Q14974 | Rango CFP/YFP FRET sensor + importin beta, 45 min | Potency, µM (doses to about 92.2 µM), for inactives: top-dose inhibition of complex formation | 340,000 compounds, 0.031% hits; active = rising FRET ratio curve, often small or poorly fitted; inconclusive = mostly compound fluorescence or quenching in the first reads; inactive = flat curves in all reads;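 note: potency is the fitted concentration of half-maximal effect; 0% = DMSO wells and 100% = buffer wells lacking importin beta; nearly all actives have a fitted effect of over 15% in size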
#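 FRET biosensor Rango (snurportin 1 IBB between N-terminal EYFP and C-terminal Cerulean), 50 nM in PBS/1 mM DTT/0.02% Tween-20/0.1% BSA, preincubated 5 min RT with compound; 0.125 microM importin beta added, 45 min RT, CFP/YFP FRET ratio read.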
# GLA inh pH 4.5: blocks human alpha-galactosidase A at pH 4.5; activity change, negative = inhibition, % at 105 µM; 230,000 tested, under 10 active; purified enzyme, 4-MU-alpha-Gal fluorescence, pH 4.5; AID 1467; inconclusive = small, poorly fitted or top-dose-only inhibition, or a rising curve; inactive = flat fitted curve, though single readings scatter; no compound was filed as active;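 note: 0% = full activity with enzyme and -100% = basal without enzyme; dose as in the result columns while the protocol names 77 µM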
# Target sequence (P06280 whole entry, looked up): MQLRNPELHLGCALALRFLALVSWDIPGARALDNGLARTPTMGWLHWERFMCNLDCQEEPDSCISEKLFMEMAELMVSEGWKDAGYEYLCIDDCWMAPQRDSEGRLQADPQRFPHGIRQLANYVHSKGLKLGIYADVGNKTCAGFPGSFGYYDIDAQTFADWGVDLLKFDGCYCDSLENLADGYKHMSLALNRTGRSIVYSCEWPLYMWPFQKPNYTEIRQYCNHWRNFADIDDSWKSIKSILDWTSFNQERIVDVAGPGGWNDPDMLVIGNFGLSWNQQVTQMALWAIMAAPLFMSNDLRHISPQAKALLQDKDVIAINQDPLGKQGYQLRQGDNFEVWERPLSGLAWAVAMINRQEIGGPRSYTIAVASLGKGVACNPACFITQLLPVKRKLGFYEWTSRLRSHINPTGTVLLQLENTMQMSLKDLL
# * hit, by the source's call; ? = inconclusive; / = no result given; & = joins results of further samples; [ ] = another dose, or the depositor's remark.
No. | canonical_smiles | Rango release inh | miR-21 reporter | Rango-impB inh | GLA inh pH 4.5
1 | CC(C)c1cc(NCCCN2CCOCC2)n2c(nc3ccccc32)c1C#N | -18.2% | -11.2% | ? | ?
2 | CCOCCCNC(=O)c1ccccc1SC | 5.6% | -7.9% | 0.7% | -4.4
3 | CCCCN(C)S(=O)(=O)c1ccc(C(=O)Nc2nnc(-c3ccco3)o2)cc1 | -7.1% | ? | -5.0% | -5.0
4 | COc1cc(S(=O)(=O)N(Cc2ccc(C)cc2)C2CCCCC2)ccc1-n1cnnn1 | -2.2% | 2.3% | -2.9% | -1.8
5 | CCOC(=O)C1=C(N)Oc2cc(C)oc(=O)c2C1c1cccnc1 (stereo not given) | -3.5% | 0.0% | -0.8% | 1.2
6 | CC(C)(C)NS(=O)(=O)c1cnc(Cl)c(Cl)c1 | -5.4% | 0.7% | -0.5% | 1.2
7 | COc1cc(-c2cc(C(=O)N3CCCCCC3)c3ccccc3n2)cc(OC)c1OC | -4.1% | / | 3.8% | /
8 | O=C(CSc1nc2ccccc2c(=O)n1-c1ccccc1)N1CCCC1 | -7.4% | -9.4% | -3.9% | 4.8
9 | Cc1ccc(N2C(=O)N3[C@H](c4ccc(F)cc4)[C@@H]4C(=O)N(C5CCCCC5)C(=O)[C@@H]4[C@]3(Cc3ccccc3)C2=O)cc1 | ? | -0.2% | 1.6% | /
10 | COc1ccc(NS(=O)(=O)c2cccc(C(=O)NNC(=O)c3ccc(O)c(Cl)c3)c2)cc1 | -11.5% | / | -0.4% | /
11 | Cc1ccc2c(CN3CCN(Cc4ccccc4)CC3)cc(=O)oc2c1C | -9.1% | 5.1% | 1.2% | /
12 | CCCCC(NC(C)=O)c1nc2ccccc2[nH]1 (stereo not given) | -7.8% | -3.5% | 0.5% | 6.9
13 | Cc1cccc(CC(=O)N2CCN=C2SCc2ccc([N+](=O)[O-])cc2)c1 | 5.1% | -2.7% | -1.1% | -2.2
14 | Cc1cccc(NC(=O)CSc2ncnc3nc[nH]c23)c1 | 0.2% | -16.9% | -1.6% | -19.3
15 | N#Cc1cccc(NCC(=O)Nc2ccc3c(c2)OCCO3)c1 | 1.0% | -29.9% | 3.6% | 7.4
16 | COc1ccc2[nH]c(=O)c(CN(CCO)C(=O)c3ccccc3F)cc2c1 | -2.1% | -14.8% | 0.9% | 4.4
17 | Cc1noc(C)c1NC(=O)N(C)C[C@H]1Oc2c(NC(=O)C3CCCCC3)cccc2C(=O)N([C@H](C)CO)C[C@@H]1C | 6.0% | / | 0.6% | /
18 | COc1ccc(C(=O)CCC(=O)NCc2cc(OC)cc(OC)c2)cc1 | -6.5% | 0.4% | -5.4% | /
19 | Cc1ccc(OCCNC(=O)c2ccccc2N)cc1 | -18.4% | -24.1% | -2.0% | -5.2
20 | Cc1cc(C(=O)COC(=O)c2ccc(N)cc2)c(C)n1-c1c(C)n(C)n(-c2ccccc2)c1=O | -14.5% | 2.3% | 0.3% | 9.2

# Six entries already listed, ordered by the value under Rango-impB inh, descending:
No. | canonical_smiles | Rango release inh | miR-21 reporter | Rango-impB inh | GLA inh pH 4.5
15 | N#Cc1cccc(NCC(=O)Nc2ccc3c(c2)OCCO3)c1 | 1.0% | -29.9% | 3.6% | 7.4
9 | Cc1ccc(N2C(=O)N3[C@H](c4ccc(F)cc4)[C@@H]4C(=O)N(C5CCCCC5)C(=O)[C@@H]4[C@]3(Cc3ccccc3)C2=O)cc1 | ? | -0.2% | 1.6% | /
11 | Cc1ccc2c(CN3CCN(Cc4ccccc4)CC3)cc(=O)oc2c1C | -9.1% | 5.1% | 1.2% | /
2 | CCOCCCNC(=O)c1ccccc1SC | 5.6% | -7.9% | 0.7% | -4.4
17 | Cc1noc(C)c1NC(=O)N(C)C[C@H]1Oc2c(NC(=O)C3CCCCC3)cccc2C(=O)N([C@H](C)CO)C[C@@H]1C | 6.0% | / | 0.6% | /
12 | CCCCC(NC(C)=O)c1nc2ccccc2[nH]1 (stereo not given) | -7.8% | -3.5% | 0.5% | 6.9

# Following part:
No. | canonical_smiles | Rango release inh | miR-21 reporter | Rango-impB inh | GLA inh pH 4.5
21 | Cc1ccc(S(=O)(=O)CCC(=O)OCc2nc(N)nc(Nc3ccccc3C)n2)cc1 | -1.8% | / | 3.0% | /
22 | O=C(NCCCN1CCOCC1)Nc1ccc(Cc2ccc(NC(=O)NCCCN3CCOCC3)cc2)cc1 | -16.1% | -3.5% | 1.8% | -2.5
23 | CCN(CC)C(=O)c1ccc2c(=O)n(Cc3ccc4c(c3)OCO4)c(=S)[nH]c2c1 | 25.1% | -3.7% | 4.1% | /
24 | Cc1cccc(C)c1NC(=O)CN(C)CC(=O)N(C)CC(=O)Nc1ccccc1Br | 9.6% | / | -0.3% | /
25 | COc1ccc(NC(=O)C(CC(C)C)NC(=O)c2ccccc2C)cn1 (stereo not given) | 0.5% | -14.3% | -0.8% | -2.5
26 | Cn1c(CO)nc2c3ccccc3ccc21 | -3.8% | / | -1.6% | /
27 | Cn1c(N2CCC(C(N)=O)CC2)nc2c1c(=O)n(Cc1ccc(Cl)cc1)c(=O)n2C | -19.3% | -2.9% | 16.8% | 4.6
28 | COc1ccc(/C=C2/SC(=O)N(CC(=O)Nc3cc(C)on3)C2=O)cc1OC | -13.0% | -4.5% | 0.2% | -5.1
29 | COc1ccc(-n2ncc3c(=O)n(CC(=O)Nc4ccc(S(=O)(=O)N5CCOCC5)cc4)cnc32)cc1 | -0.6% | 0.8% | -0.5% | -10.9
30 | Cc1c(O)cccc1C(=O)N[C@@H](CSc1ccccc1)[C@H](O)CN1C[C@H]2CCCC[C@H]2C[C@H]1C(=O)NC(C)(C)C | ? | ? | -9.8%&-2.5% | -11.8
31 | CC1(C)Cc2nc(-c3ccccc3)nc(SCC(=O)N3CCCC3)c2CO1 | 11.6% | -3.3% | 5.7% | 7.0
32 | O=C(CSc1nc2ccsc2c(=O)n1Cc1ccccc1)NCC1CCCO1 (stereo not given) | -7.3% | -3.8% | -2.3% | 3.7[21.1 µM]
33 | N#CC1(P(=O)(c2ccccc2)c2ccccc2)CCCC1 | 9.3% | 0.7% | -1.8% | /
34 | C/C(=N\NC(=O)C(O)c1ccccc1)c1cccnc1 (stereo not given) | -2.0% | 0.3% | -4.1% | /
35 | COc1ccc(N2C(=O)C(CC(=O)Nc3ccc(F)cc3)N(CCc3cccs3)C2=O)cc1 (stereo not given) | 8.6% | -9.6% | -5.7% | -0.4
36 | O=C(CCN1C(=O)S/C(=C\c2ccc(F)cc2)C1=O)Nc1ccc(O)cc1C(=O)O | -9.8% | -0.9% | 4.0% | /
37 | CCN1CCN(C(c2cccs2)C(C)NC(=O)CC(C)C)CC1 (stereo not given) | 9.8% | -5.7% | -0.6% | 6.2
38 | CSc1ncccc1C(=O)OCC(=O)NCc1cccs1 | -3.8% | / | 0.3% | /
39 | COc1ccccc1CNS(=O)(=O)c1ccc(Br)s1 | -5.9% | -4.2% | 0.9% | /
40 | C=CCOc1ccc(CN(C)c2ccc(S(=O)(=O)N3CCN(C)CC3)cc2[N+](=O)[O-])cc1 | -1.3% | / | 0.1% | /

No. | canonical_smiles | Rango release inh | miR-21 reporter | Rango-impB inh | GLA inh pH 4.5
41 | Cc1ccc(N2C(=S)NC3c4ccccc4OC2(C)C3C(=O)N(C)C)cc1 (stereo not given) | -1.7% | 2.9% | -0.1% | 5.6
42 | CC(=O)COC(=O)CCc1nc2ccccc2[nH]c1=O | 12.5% | -2.3% | 2.1% | -21.0
43 | O=c1cnc(-c2ccc(Cl)cc2)cn1O | -12.9% | -5.8% | -4.7% | 8.4
44 | Cc1nn2c(C)nc3sc4c(c3c2nc1=O)CC(C)(C)OC4 | 30.9% | -0.8% | -2.7% | -0.3
45 | COc1ccc2c(c1)oc(=O)c1cc(OC)ccc12 | -6.8% | -48.6% | -1.4% | 15.1
46 | O=C(Nc1ccc(F)cc1F)c1cc2n(n1)C(C(F)(F)F)C1CCCCC1N2 (stereo not given) | -5.7% | -43.0% | ? | 3.9
47 | COc1ccc(CC(=O)Nc2ccc(-c3cn4ccccc4n3)cc2)cc1OC | 7.7% | -3.8% | 3.5% | 0.1
48 | COc1ccc(-c2ccc(CCC(=O)O)n2Cc2ccco2)cc1 | -12.7% | 4.3% | ? | -1.6
49 | COC(=O)c1cccc(Nc2c3c(nc4ccccc24)CCC3)c1 | -3.3% | 26.0% | -4.8% | /
50 | O=S(=O)(c1ccc(Br)cc1)N1CCN(c2ccccc2)CC1 | 10.2% | 2.0% | 5.9% | /
51 | CCN(C(=O)CN1CC(C)OC(C)C1)c1c(N)n(Cc2ccccc2)c(=O)[nH]c1=O (stereo not given) | 0.2% | 0.2% | -3.5% | 1.3
52 | COc1ccc(-c2cn[nH]c2N)c(OC)c1 | -6.9% | -6.9% | ? | -10.5
53 | COC(=O)CCCCCc1ccc(C(C)=O)s1 | -7.4% | -9.8% | 0.4% | -0.4
54 | Cc1sc(C(=O)NCc2cccnc2)c2nc(C)n(CC(=O)NCc3cccnc3)c(=O)c12 | 2.0% | 1.1% | 0.5% | -6.7
55 | Cc1cc(C(=O)N/N=C/c2ccc(-c3ccccc3Cl)o2)n[nH]1 | -13.4% | -29.5% | 1.7% | 3.7
56 | COc1ccc(-c2c(C#N)c(N)nc3c2c(=O)n(C)c(=O)n3C)cc1 | -7.8% | -3.5% | 1.8% | -3.6
57 | CCN(C(=O)COC(=O)Cc1c[nH]c2ccccc12)c1c(N)n(Cc2ccccc2)c(=O)[nH]c1=O | -12.1% | / | 1.2% | /
58 | O=c1ccc(-c2nc3ccccc3n2Cc2ccccc2Cl)c[nH]1 | -5.0% | -0.3% | -1.4% | 6.9
59 | CCn1cc(C(=O)N[C@@H](CC(C)C)C(=O)NCCCn2ccnc2)c(=O)c2cc3c(cc21)OCO3 | -4.8% | -10.9% | -1.0% | /
60 | Cc1c(N/C=C(\Cl)C(=O)C(F)(F)F)c(=O)n(-c2ccccc2)n1C | -16.6% | 4.7% | -2.4% | -1.9

No. | canonical_smiles | Rango release inh | miR-21 reporter | Rango-impB inh | GLA inh pH 4.5
61 | COc1cc(/C=C2\SC(=S)N(CC(=O)NC3=NCCS3)C2=O)cc(OC)c1OC | -0.5% | -0.3% | 0.3% | -7.5
62 | Cn1c(C(=O)NCCN2CCOCC2)cc2sccc21 | 7.9% | -15.0% | -7.4% | -2.7
63 | Cc1ccc(NNC(=O)c2ccno2)cc1C | 11.4% | 12.1% | 3.1% | 2.1
64 | COc1ccc2nc(NNC(=O)c3cc(=O)c4ccccc4o3)sc2c1 | -5.0% | -40.5% | 0.4% | -5.3
65 | CSc1ccccc1C(=O)Nc1cccc(C(C)=O)c1 | -1.1% | -4.0% | -3.7% | 4.5
66 | CS(=O)(=O)N1CCCC(C(=O)NCCN2CCC(Cc3ccccc3)CC2)C1 (stereo not given) | 3.1% | -6.5% | -4.7% | -6.0
67 | COc1ccccc1CNC(=O)CN(c1ccc(C)cc1)S(=O)(=O)c1c(C)n[nH]c1C | 17.8% | -5.9% | 1.1% | -4.5
68 | CCOC(=O)c1c(-c2ccc(F)cc2)csc1NC(=O)CN1C(=O)NC2(CCCCC2C)C1=O (stereo not given) | -0.4% | 3.5% | 2.1% | 5.1

# Results in Rango-impB inh, for two of the compounds above:
entry | Structure | Rango-impB inh
64 | COc1ccc2nc(NNC(=O)c3cc(=O)c4ccccc4o3)sc2c1 | 0.4%
65 | CSc1ccccc1C(=O)Nc1cccc(C(C)=O)c1 | -3.7%

# Record cards, as listed above. Order of screens: Rango release inh	miR-21 reporter	Rango-impB inh	GLA inh pH 4.5
# Record of CS(=O)(=O)N1CCCC(C(=O)NCCN2CCC(Cc3ccccc3)CC2)C1 (stereo not given) = 3.1%	-6.5%	-4.7%	-6.0
# Record of Cn1c(C(=O)NCCN2CCOCC2)cc2sccc21 = 7.9%	-15.0%	-7.4%	-2.7
# Record of CSc1ccccc1C(=O)Nc1cccc(C(C)=O)c1 = -1.1%	-4.0%	-3.7%	4.5
# Record of Cc1ccc(NNC(=O)c2ccno2)cc1C = 11.4%	12.1%	3.1%	2.1
# Record of COc1ccc2nc(NNC(=O)c3cc(=O)c4ccccc4o3)sc2c1 = -5.0%	-40.5%	0.4%	-5.3

# A portion of the library, so the mix of outcomes need not match the whole.
